Ecoli rRNA inh = inhibitors of bacterial rRNA selective over humanized ribosomes. E. coli WT GFP vs humanized-ribosome RFP mutants, fluorescence, 24 h; stronger effect = lower value; DMSO median 0, no signal -100. GFP signal change (wild-type ribosome), % (no concentration beside the values). 1.6% of 350,000 active. AID 720706;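 active = significant combined selectivity score with lowered wild-type GFP, culture density cut under 30%, mutant RFP and density less affected; inactive = any of these conditions unmet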; also: one replicate is shown; some compounds called inactive have numbers as strong as hits
MLL AF4-AF9 inh = blocks AF4 peptide binding to human AF9; AID 651704; inhibition, % at 10 µM; 0.47% of 350,000 active; P42568; AlphaScreen, biotin-AF4 peptide binding to FLAG-AF9;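 active = every replicate reaching a set inhibition limit, whatever the replicate mean, cut at about 25% in these data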;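 also: 0% = plate neutral control median and 100% = total signal loss; the record names both 10 and 1 µM as test concentration; the first replicate is given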
Target sequence (P42568 whole entry, looked up): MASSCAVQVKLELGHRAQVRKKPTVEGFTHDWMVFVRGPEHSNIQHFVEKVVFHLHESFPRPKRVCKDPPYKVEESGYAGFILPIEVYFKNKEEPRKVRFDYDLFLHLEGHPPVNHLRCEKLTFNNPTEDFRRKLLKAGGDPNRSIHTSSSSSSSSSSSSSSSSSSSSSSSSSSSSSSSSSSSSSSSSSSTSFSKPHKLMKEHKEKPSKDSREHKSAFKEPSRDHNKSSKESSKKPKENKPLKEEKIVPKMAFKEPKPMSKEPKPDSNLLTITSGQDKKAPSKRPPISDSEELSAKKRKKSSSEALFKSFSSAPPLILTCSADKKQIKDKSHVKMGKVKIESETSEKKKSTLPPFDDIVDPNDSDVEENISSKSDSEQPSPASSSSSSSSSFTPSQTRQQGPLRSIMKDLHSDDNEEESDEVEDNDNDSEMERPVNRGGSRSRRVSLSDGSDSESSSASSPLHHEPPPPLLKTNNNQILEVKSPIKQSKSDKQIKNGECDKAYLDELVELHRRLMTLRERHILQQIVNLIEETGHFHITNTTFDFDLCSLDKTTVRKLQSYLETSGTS
Ecoli rRNA inh OD600 = second read-out of Ecoli rRNA inh, no call of its own (marks repeat the call); OD600 change, %; measured here: OD600 growth;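 optical density of the mix in the first replicate; 0 = DMSO median and -100 = no signal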
Ecoli rRNA inh RFP = second read-out of Ecoli rRNA inh, no call of its own (marks repeat the call); RFP signal change, %; measured here: RFP humanized mutant strains;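 first replicate; 0 = DMSO median and -100 = no signal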
Numbers without * were called inactive; & = joins results of further samples. Some of the compounds tested, so the mix of outcomes need not match the whole.

SMILES | Ecoli rRNA inh | Ecoli rRNA inh OD600 | Ecoli rRNA inh RFP | MLL AF4-AF9 inh
O=C(NC[C@H]1N[C@H](CO)[C@@H]1c1ccc(C2=CCCC2)cc1)C1CCCC1 | 2.3 | -19.6 | 4.5 | 4.5
Cc1noc(C)c1S(=O)(=O)N(C)C[C@@H]1OCCCC[C@@H](C)Oc2ccc(NC(=O)NC(C)C)cc2C(=O)N([C@H](C)CO)C[C@@H]1C | 4.3 | 13.3 | -0.5 | 2.4
CCC(=O)N1[C@H](C(=O)NC2CCCCC2)[C@@H](CO)[C@@H]2Cn3c(cccc3=O)[C@@H]21 | 1.5 | 7.0 | -2.8 | -0.6
Cc1ccc(S(=O)(=O)Nc2ccc3c(c2)C(=O)N([C@H](C)CO)C[C@@H](C)[C@H](CN(C)S(=O)(=O)c2ccccc2)OCCCC[C@H](C)O3)cc1 | -1.6 | -3.8 | -0.2 | -1.7
O=C(C[C@H]1CC[C@H](NS(=O)(=O)c2ccc(F)cc2)[C@@H](CO)O1)NCc1ccccc1F | -0.7 | 1.2 | -2.2 | -2.7
CNC[C@H]1OCCCC[C@@H](C)Oc2ccc(NC(=O)Nc3cccc4ccccc34)cc2C(=O)N([C@H](C)CO)C[C@H]1C | 1.2 | 0.5 | -0.5 | 0.8
CCNC(=O)C[C@@H]1CC[C@@H]2[C@H](COC[C@H](O)CN2C(=O)c2cc(Cl)cc(Cl)c2)O1 | 1.6 | 2.4 | -3.5 | -3.6
O=C(NCC1CC1)[C@H]1[C@H](CO)[C@H]2Cn3c(ccc(C4=CCCCC4)c3=O)[C@@H]1N2 | 2.1 | 1.6 | -0.8 | -1.6
O=C(C[C@@H]1CC[C@H]2[C@@H](COC[C@@H](O)CN2Cc2ccccc2)O1)NCCc1ccccc1 | -0.9 | -11.9 | -0.4 | -1.3
CN(C)C(=O)c1cccc(-c2ccc([C@@H]3[C@@H](CO)N4C(=O)CN(C(=O)C5CCCCC5)C[C@@H]34)cc2)c1 | 5.2 | 15.2 | 5.0 | -3.9
O=C(C1CCOCC1)N1CC2(C1)[C@@H](c1ccccc1)[C@H](CO)N2C(=O)CC1CC1 | 6.5 | 14.4 | 0.5 | -4.6
O=C(C1CCOCC1)N1CC(=O)N2[C@H](CO)[C@@H](c3ccc(C#CCc4ccccc4)cc3)[C@H]2C1 | 2.9 | 3.6 | 1.1 | 1.2

5 entries from above, tab-delimited.
Compound	Ecoli rRNA inh	Ecoli rRNA inh OD600	Ecoli rRNA inh RFP	MLL AF4-AF9 inh
Cc1ccc(S(=O)(=O)Nc2ccc3c(c2)C(=O)N([C@H](C)CO)C[C@@H](C)[C@H](CN(C)S(=O)(=O)c2ccccc2)OCCCC[C@H](C)O3)cc1	-1.6	-3.8	-0.2	-1.7
O=C(C[C@H]1CC[C@H](NS(=O)(=O)c2ccc(F)cc2)[C@@H](CO)O1)NCc1ccccc1F	-0.7	1.2	-2.2	-2.7
CNC[C@H]1OCCCC[C@@H](C)Oc2ccc(NC(=O)Nc3cccc4ccccc34)cc2C(=O)N([C@H](C)CO)C[C@H]1C	1.2	0.5	-0.5	0.8
CCNC(=O)C[C@@H]1CC[C@@H]2[C@H](COC[C@H](O)CN2C(=O)c2cc(Cl)cc(Cl)c2)O1	1.6	2.4	-3.5	-3.6
O=C(NCC1CC1)[C@H]1[C@H](CO)[C@H]2Cn3c(ccc(C4=CCCCC4)c3=O)[C@@H]1N2	2.1	1.6	-0.8	-1.6

New compounds follow:
SMILES | Ecoli rRNA inh | Ecoli rRNA inh OD600 | Ecoli rRNA inh RFP | MLL AF4-AF9 inh
C[C@@H]1CN([C@@H](C)CO)S(=O)(=O)c2ccc(-c3cccnc3)cc2O[C@H]1CN(C)CC1CC1 | 2.6 | -6.4 | -3.1 | -1.9
CCS(=O)(=O)N1CC(=O)N2[C@@H](CO)[C@@H](c3ccc(C#CC4CCCCC4)cc3)[C@@H]2C1 | 2.0 | -22.5 | -7.7 | 3.0
C[C@@H]1CN([C@@H](C)CO)C(=O)c2cc(NC(=O)Nc3ccc(C(F)(F)F)cc3)ccc2O[C@@H](C)CCCCO[C@@H]1CN(C)S(=O)(=O)c1ccc(F)cc1 | -0.4 | 3.3 | -3.8 | -4.1
CC(C)NC(=O)N[C@@H]1C=C[C@H](CC(=O)NCc2ccc(Oc3ccccc3)cc2)O[C@@H]1CO | -1.8 | -6.7 | -0.5 | -6.1
C[C@H]1CN([C@@H](C)CO)C(=O)c2c(c3ccccc3n2C)-c2ccccc2CO[C@H]1CN(C)C(=O)Nc1cccc(C(F)(F)F)c1 | -1.0 | -7.4 | -4.7 | 0.0
COCC#Cc1ccc([C@H]2[C@@H](CO)N3C(=O)CN(C(=O)c4cccnc4)C[C@H]23)cc1 | 4.7 | 13.4 | -1.2 | -3.6
O=C(Cc1cccnc1)N1CC(=O)N2[C@H](C1)[C@H](c1ccc(C#CC3CC3)cc1)[C@@H]2CO | -0.5 | -6.2 | -3.3 | 4.0
COc1ccc(NC(=O)N2CC(=O)N3[C@H](CO)[C@H](c4ccc(/C=C/c5ccccc5)cc4)[C@@H]3C2)cc1 | -1.2 | -6.7 | 7.9 | 4.9
CO[C@@H]1CN(C)C(=O)c2cc(NC(=O)NC3CCCC3)ccc2OC[C@H](C)N(CC2CC2)C[C@@H]1C | 3.0 | 4.1 | -0.9 | -1.0
Cc1ccccc1S(=O)(=O)N1CC(=O)N2[C@H](CO)[C@H](c3ccc(C#CCN(C)C)cc3)[C@H]2C1 | 4.6 | 9.8 | 0.3 | 3.9
O=C(Cc1ccccn1)N[C@H]1CC[C@@H](CCn2cc(-c3ccc(F)cc3)nn2)O[C@H]1CO | 0.1 | -7.1 | 6.7 | -3.3
CN(C)C(=O)c1ccc(-c2ccc(C3[C@@H]4CN(C(=O)Nc5ccccc5)C[C@H]3N4)cc2)cc1 (stereo partly specified) | 4.0 | 5.5 | 0.6 | -1.9
C[C@H](CO)N1C[C@H](C)[C@@H](CN(C)Cc2ccc(Oc3ccccc3)cc2)Oc2c(NC(=O)c3cnccn3)cccc2C1=O | -13.2 | -22.7 | 4.4 | 2.0
O=C(C1CCC1)N1CC[C@@H]2[C@H]1c1cc(Br)ccc1N[C@@H]2CO | -2.9 | 1.7 | -1.1 | -3.1
C[C@@H]1CN([C@H](C)CO)C(=O)c2cc(N(C)C)ccc2O[C@H]1CN(C)CC1CCCCC1 | 4.4 | 3.4 | 0.5 | 3.5
CC(C)NC(=O)N1[C@@H]2CNC[C@H]1C2c1ccc(-c2ccccc2)cc1 (stereo partly specified) | 5.6&5.7 | 17.9&11.6 | -2.5&-0.6 | 0.2&0.6
CC(C)C#Cc1ccc([C@H]2[C@H](CO)N3C(=O)CN(C(=O)c4ccccn4)C[C@@H]23)cc1 | 3.2 | -2.2 | -2.8 | -0.2
O=C(Cc1ccccn1)N1CC(=O)N2[C@H](CO)[C@@H](c3ccc(C#CC4CC4)cc3)[C@@H]2C1 | 3.0 | 13.9 | -5.6 | -2.3
O=C(C[C@@H]1C[C@@H]2c3cc(NC(=O)c4cccnc4)ccc3O[C@@H]2[C@H](CO)O1)NC1CCCC1 | 1.9 | 4.9 | -1.8 | -2.1
CC(=O)N1[C@H](CO)[C@@H](c2ccccc2)C12CN(C(=O)Nc1ccccc1F)C2 | 1.4 | 1.3 | 1.3 | -7.0
O=C(C1CCOCC1)N1CC(=O)N2[C@H](CO)[C@@H](c3ccc(C#CC4CC4)cc3)[C@@H]2C1 | 3.6 | 16.2 | -1.4 | 0.3
C/C=C/c1ccc([C@H]2[C@@H](CO)N(C(=O)NCCC)[C@H]2CN(C)C(=O)CC)cc1 | 2.4 | 6.8 | 1.8 | -3.2
O=C(Nc1ccc(C(F)(F)F)cc1)N1[C@@H]2CNC[C@H]1C2c1ccc(-c2ccncc2)cc1 (stereo partly specified) | -59.6&-53.1 | -79.0&-75.0 | -12.6&-13.7 | 2.4&3.2
O=C(c1ccc(F)cc1)N1CC(=O)N2[C@H](C1)[C@H](c1ccc(-c3ccccc3F)cc1)[C@@H]2CO | 5.2 | -14.9 | -1.9 | 0.1
COc1ccc2c3c(n(C)c2c1)[C@@H](CO)N(CC1CCCC1)CC31CN(C(=O)Nc2ccccc2)C1 | 1.6 | 2.9 | 0.0 | 3.1
CCCNC(=O)[C@@H]1[C@@H](CO)[C@@H]2Cn3c(cccc3=O)[C@@H]2N1Cc1cccc(F)c1 | -0.3 | 9.9 | -2.0 | -11.4
COc1ccc(NC(=O)N[C@@H]2CC[C@H](CCNC(=O)CCN3CCCCC3)O[C@H]2CO)cc1 | 0.6 | 3.6 | 1.6 | 0.4
COc1ccc2c3c(n(C)c2c1)[C@H](CO)N(C(=O)Nc1ccc(F)cc1)CC31CN(C(=O)CC2CC2)C1 | 2.8 | -13.2 | 7.4 | 6.6
C[C@H](CO)N1C[C@H](C)[C@H](CN(C)Cc2ccncc2)Oc2ccc(NC(=O)Nc3cccc4ccccc34)cc2CC1=O | -3.9 | -17.9 | 8.6 | 2.7
N#C[C@@H]1[C@H](c2ccc(C3=CCCCC3)cc2)[C@H](CO)N1C(=O)NC1CCCC1 | -1.1 | 1.6 | 2.2 | 0.1
CO[C@H]1CN(C)C(=O)c2ccc(NS(C)(=O)=O)cc2OC[C@@H](C)N(C(=O)C2CCCCC2)C[C@H]1C | 1.7 | 1.4 | 1.9 | -0.7
O=C(Nc1cccc(F)c1)N1CC(=O)N2[C@@H](CO)[C@@H](c3ccc(-c4ccccc4F)cc3)[C@@H]2C1 | -34.3 | -57.8 | 0.4 | 0.8
C/C=C/c1ccc2c(c1)[C@H]1[C@H](CCN1S(=O)(=O)c1cccc(F)c1)[C@@H](CO)N2 | -0.4 | 14.1 | -1.3 | -0.3
C[C@@H]1CN([C@@H](C)CO)C(=O)Cc2cc(NC(=O)C3CC3)ccc2O[C@@H]1CN(C)Cc1ccc(Cl)c(Cl)c1 | -17.9 | -39.8 | 19.7 | 0.1
Cc1ccc(-c2ccc([C@H]3[C@H]4CN(S(=O)(=O)c5cccc(F)c5)CC(=O)N4[C@H]3CO)cc2)cc1 | 1.8 | 8.1 | -0.7 | 1.0
COC(=O)[C@@H]1[C@@H](CO)[C@@H]2Cn3c(ccc(-c4ccccc4OC)c3=O)[C@@H]2N1CC1CCCCC1 | -16.3 | -34.5 | 10.6 | 5.2

Part of the list above with just Ecoli rRNA inh and MLL AF4-AF9 inh.
compound | Ecoli rRNA inh | MLL AF4-AF9 inh
COc1ccc2c3c(n(C)c2c1)[C@H](CO)N(C(=O)Nc1ccc(F)cc1)CC31CN(C(=O)CC2CC2)C1 | 2.8 | 6.6
Cc1ccc(-c2ccc([C@H]3[C@H]4CN(S(=O)(=O)c5cccc(F)c5)CC(=O)N4[C@H]3CO)cc2)cc1 | 1.8 | 1.0

Remaining list, next part
SMILES | Ecoli rRNA inh | Ecoli rRNA inh OD600 | Ecoli rRNA inh RFP | MLL AF4-AF9 inh
N#C[C@H]1[C@H](c2ccc(-c3cccc(F)c3)cc2)[C@H](CO)N1C(=O)NC1CCCCC1 | 2.7 | -45.1 | 4.0 | -2.4
O=C(CC1CC1)N1CC(=O)N2[C@@H](CO)[C@@H](c3ccc(C#Cc4ccc(F)cc4)cc3)[C@@H]2C1 | 5.2 | -47.5 | 24.1 | -2.5
CCCC(=O)Nc1ccc2c(c1)C(=O)N(C)[C@H]1CC[C@H](CC(=O)NCCN3CCCCC3)O[C@H]1CO2 | 3.2 | 8.5 | -1.5 | 0.0
COc1cccc(-c2ccc([C@H]3[C@@H](CO)N4C(=O)CN(C(=O)c5cccnc5)C[C@@H]34)cc2)c1 | 1.0 | 6.6 | -2.1 | -14.9
COc1ccc2c3c([nH]c2c1)[C@@H](CO)N(Cc1ccc(Cl)cc1)CC31CCN(Cc2nccs2)CC1 | 0.0 | -13.7 | 0.0 | 6.9
COCC(=O)N1[C@H](CO)[C@@H]2c3ccccc3N(C)C[C@@H]21 | 4.4 | 0.7 | 1.6 | -2.9
Cc1noc(C)c1NC(=O)N(C)C[C@H]1OCCCC[C@@H](C)Oc2ccc(NS(=O)(=O)c3ccccc3)cc2C(=O)N([C@@H](C)CO)C[C@H]1C | -2.6 | 1.5 | -1.1 | -3.7
O=C(NC1CCCCC1)N1C[C@@H]2N[C@H](C1)C2c1ccc(-c2cccc(F)c2)cc1 (stereo partly specified) | -58.4&-53.1 | -76.8&-66.9 | -11.6&-3.7 | -0.8&5.7
O=C(C[C@H]1C[C@@H]2c3cc(NC(=O)Nc4ccccc4)ccc3O[C@@H]2[C@@H](CO)O1)NCc1ccccn1 | 4.3 | -0.3 | 0.2 | -0.6
Cc1noc(C)c1NC(=O)N(C)C[C@H]1OCCCC[C@H](C)Oc2ccc(NS(=O)(=O)c3ccccc3)cc2C(=O)N([C@@H](C)CO)C[C@H]1C | 1.2 | 2.2 | -2.3 | -1.0
C[C@@H]1CN([C@H](C)CO)C(=O)c2cc(NC(=O)Nc3cccc4ccccc34)ccc2O[C@@H]1CN(C)Cc1ccc(C(=O)O)cc1 | 0.3 | 2.3 | 0.1 | 7.2
O=C(C[C@H]1CC[C@H]2[C@@H](COC[C@@H](O)CN2C(=O)c2ccc3c(c2)OCO3)O1)NCCN1CCCC1 | 0.6 | 9.4 | -0.6 | -2.3
CO[C@H]1CN(C)C(=O)c2cc(NC(=O)Nc3ccc(Cl)cc3)ccc2OC[C@@H](C)N(C)C[C@H]1C | -1.8 | 2.2 | 4.0 | 6.0
CCCC(=O)Nc1ccc2c(c1)C(=O)N(C)[C@H]1CC[C@H](CC(=O)OC)O[C@@H]1CO2 | 3.6 | 8.9 | 0.2 | -18.4
CN1C(=O)c2cc(NC(=O)C3CC3)ccc2OC[C@H]2O[C@@H](CC(=O)NCc3ccccc3F)CC[C@H]21 | 1.0 | 7.8 | -1.1 | -3.3

Compound activity as filed in PubChem.
